Compound activity (PubChem BioAssay)
ERG-DNA inh: blocks human ERG Ets domain binding to DNA; AID 624246; fluorescence polarization, His-ERG Ets domain / labelled DNA; Potency, µM (doses to about 76.9 µM), for inactives: top-dose FP activity, negative = inhibition, hits mostly inhibitors; P11308; actives 0.028% (n = 370,000); active = well fitted inhibition curve with a large enough effect in the polarisation, with a control signal flat; inconclusive = small, poorly fitted or top-dose-only effect, or effect the other way, or a change in a side signal; inactive = no such curve, though single readings can be large or run the other way; the % refers to the polarisation;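 also: polarization taken with two DNA probes labelled with fluorescein and Texas red; % of control where 0% means no effect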
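His-tagged ERG Ets domain (1 uM in the protein solution; 300mM KCl, 50mM Tris-HCl, 1mM EDTA, 1mM DTT, pH 7.5) received compound, then a probe mix of 5 nM fluorescein-DNA and 100nM Texas-615-DNA. Fluorescence polarization was read for both dyes.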
GLS inhibitor: glutaminase GLS (human) inhibition; actives 0.21% (n = 410,000); Potency, µM (titrated, usually from 45.5 µM), inactives show at the top dose activity change, negative = inhibition, hits mostly inhibitors; O94925; GLS enzymatic activity, qHTS titration; also: % is scaled to controls: 0 for no effect and ±100 for the full control effect
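Coupled fluorescence readout: glutamate oxidase/HRP/Amplex Red detect glutamate formed by hKGA from L-glutamine (1 mM solution added). Buffer 45 mM KH2PO4 pH 8.2, 0.02% Tween-20; reads at t0 and 30 min RT.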
RGS4 inhibitor: blocks human RGS4-accelerated GTP hydrolysis | actives 0.039% (n = 390,000) | Potency, µM (series often up to 114 µM), inactives show at the top dose activity change, negative = inhibition, hits mostly inhibitors | Transcreener GDP fluorescence polarization, RGS4-accelerated GTP hydrolysis | AID 504845; also: % is scaled to controls: 0 for no effect and ±100 for the full control effect; nearly all actives have a fitted effect of over 75% in size; some results filed as inactive show a strong effect at the top dose
Target sequence (P49798 whole entry, looked up): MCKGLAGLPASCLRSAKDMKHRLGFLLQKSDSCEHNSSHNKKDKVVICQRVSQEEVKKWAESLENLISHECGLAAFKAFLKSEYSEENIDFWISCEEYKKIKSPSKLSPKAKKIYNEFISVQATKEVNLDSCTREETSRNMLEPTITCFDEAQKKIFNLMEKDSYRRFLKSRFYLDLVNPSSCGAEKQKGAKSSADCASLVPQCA
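MLSMR compounds (23 nl, pin-transferred) preincubated 10 min at room temperature with a 500nM (2x) first reagent, then RGS4 at 900nM (2x) plus Transcreener GDP mix added; fluorescence polarization (620/688 nm) read before and after 90 min at 30 °C.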
PGK inhibitor: T. brucei PGK inhibition. Potency, µM (titrated, usually from 57.5 µM), for inactives: at the top dose activity change, negative = inhibition, hits mostly inhibitors. PGK/GAPDH coupled, Kinase-Glo luminescence, 60 min. P07378. actives 0.043% (n = 380,000); also: % is scaled to controls: 0 for no effect and ±100 for the full control effect; nearly all actives have a fitted effect of over 60% in size
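Luminescent ATP detection (Kinase-Glo Plus) follows a 60-minute room-temperature incubation, with wells lacking PGK as controls. Buffer: 100 mM TEA (pH 7.6), 5 mM MgCl2, 0.01% Tween-20. Coupling enzyme GAPDH (100 nM final) supplies unstable 1,3-BPG in-well.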
Pin1 inhibitor: inhibitors of human Pin1; Pin1 FP peptide displacement, HiFluor488, 10 min; Q13526; Potency, µM (highest dose often 115 µM), inactives show at the top dose activity, negative = inhibition, most hits filed as inhibitors; actives 0.009% (n = 390,000); active = well fitted inhibition curve with a large enough effect in the polarisation, with a control signal flat, not every such curve was filed as active; inconclusive = small, poorly fitted or top-dose-only effect, or effect the other way, or a change in a side signal; inactive = no such curve, though single readings can be large or run the other way; the % refers to the polarisation; also: % is scaled to controls: 0 for no effect and ±100 for the full control effect
Target sequence (Q13526 whole entry, looked up): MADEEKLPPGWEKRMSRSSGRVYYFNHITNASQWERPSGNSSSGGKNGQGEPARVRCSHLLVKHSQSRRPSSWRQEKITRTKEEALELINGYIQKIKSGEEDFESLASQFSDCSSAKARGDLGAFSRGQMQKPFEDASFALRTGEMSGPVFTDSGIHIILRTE
12-LOX inh: blocks human arachidonate 12S-lipoxygenase; P18054; Potency, µM (series often up to 108 µM), inactives show at the highest dose activity change, negative = inhibition, usual class: inhibitors; actives 1.1% (n = 580,000); purified 12hLO, xylenol orange hydroperoxide absorbance; AID 1671190; also: % is scaled to controls: 0 for no effect and ±100 for the full control effect
Target sequence (P18054 whole entry, looked up): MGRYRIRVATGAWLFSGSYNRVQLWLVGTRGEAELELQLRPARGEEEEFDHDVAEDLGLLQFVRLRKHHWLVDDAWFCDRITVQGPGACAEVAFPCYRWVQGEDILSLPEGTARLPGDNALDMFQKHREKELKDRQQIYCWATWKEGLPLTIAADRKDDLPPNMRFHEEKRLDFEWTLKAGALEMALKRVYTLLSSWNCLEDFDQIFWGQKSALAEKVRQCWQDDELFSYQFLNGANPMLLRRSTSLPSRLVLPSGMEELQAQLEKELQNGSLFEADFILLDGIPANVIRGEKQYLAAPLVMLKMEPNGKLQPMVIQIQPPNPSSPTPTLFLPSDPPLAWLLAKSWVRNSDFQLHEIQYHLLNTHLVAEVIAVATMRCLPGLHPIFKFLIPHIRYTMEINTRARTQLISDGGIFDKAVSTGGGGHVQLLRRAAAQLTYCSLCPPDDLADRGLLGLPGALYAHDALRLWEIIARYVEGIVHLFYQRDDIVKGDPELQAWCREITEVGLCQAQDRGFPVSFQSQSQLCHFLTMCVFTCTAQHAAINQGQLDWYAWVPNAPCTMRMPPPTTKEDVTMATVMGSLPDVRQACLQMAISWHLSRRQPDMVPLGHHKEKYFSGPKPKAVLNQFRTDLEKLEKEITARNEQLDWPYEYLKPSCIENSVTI
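Purified human 12hLO (150 nM final) in 25 mM Hepes, 0.01% Triton X-100, pH 7.0 was preincubated 15 min at room temperature with compound. Then 40 uM arachidonic acid was added, 30 min. Hydroperoxide was read by Fe-XO absorbance ratio 573/405 nm.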
TrxR1 inh: rat TrxR1 inhibition; recombinant rTrxR1, NADPH fluorescence consumption, selenite substrate; actives 1% (n = 390,000); O89049; Potency, µM (series often up to 114 µM), for the others: at the top dose activity change, negative = inhibition, usual class: inhibitors; also: % is scaled to controls: 0 for no effect and ±100 for the full control effect; nearly all actives have a fitted effect of over 65% in size
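Rat TrxR1 (90 nM in the dispensed reagent) was pre-reduced with 400 uM NADPH for 5 min at room temperature, then incubated with compound for 15 min. After 400 uM selenite was added, NADPH fluorescence (Ex 340/Em 450 nm) was followed for 8 min.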
Numbers without * were called inactive; i = inactive; ? = inconclusive; · = not tested or not shown; & = joins results of further samples; [ ] = remark or other dose. Unless noted, calls follow the shape of the dose curve; as a rule, active = well fitted curve in the direction sought with a large enough effect; inconclusive = small, poorly fitted or top-dose-only effect, or another doubt; inactive = no such curve, though single readings can be large; an effect the other way counts as inactive or inconclusive. Potency is read from the fitted curve at half-maximal effect. A portion of the library; rates above refer to the full screens.

ERG-DNA inh	GLS inhibitor	RGS4 inhibitor	PGK inhibitor	Pin1 inhibitor	12-LOX inh	TrxR1 inh	molecule
-13%	21%	-45%	i	-1%	-20%	?	COc1ccc(C(=O)NC(=S)NNC(=O)c2cnccn2)cc1OC
2%	-7%	6%[11.4 µM]	i	-3%	-7%	17%	COCCNCC(=O)Nc1ccccc1Sc1ccccc1
3%	49%[activator]	?	6%	11%	?	?	Cc1ccc(/C=C/C(=O)NCCc2cccc(Cl)c2)o1
2%	-14%	-10%	-1%	-4%	-4%	14%	O=S(=O)(NCc1ccc2c(c1)OCO2)c1ccccc1F
1%	-3%	1%	5%	-4%	?	14%	O=C(CSc1nncs1)Nc1nnc(-c2ccccc2)o1
-7%	?	11%	-1%	-9%	-16%	-2%	O=C(c1cccs1)N1CCN(Cc2cccnc2)CC1
-4%	5%	3%	1%	?	72%	-6%	O=C(CSc1nc(O)cc(=O)[nH]1)C1CC1
3%	7%	4%	1%	-12%	?	17%	c1ccc(-c2ccccc2OCCOCCN2CCOCC2)cc1
17%	-6%	20%	9%	1%	0%	8%[57.1 µM]	Cc1ccccc1Nc1sc(C(=O)c2ccc(F)cc2)c(N)c1C(=O)NCCc1ccccc1
11%	-12%	?	i	-3%	?	-30%	Cc1ccc(-n2c(N)c(C(N)=O)sc2=S)c(C)c1

The final 4 records of the section before are carried over, then new ones follow:
ERG-DNA inh	GLS inhibitor	RGS4 inhibitor	PGK inhibitor	Pin1 inhibitor	12-LOX inh	TrxR1 inh	molecule
-4%	5%	3%	1%	?	72%	-6%	O=C(CSc1nc(O)cc(=O)[nH]1)C1CC1
3%	7%	4%	1%	-12%	?	17%	c1ccc(-c2ccccc2OCCOCCN2CCOCC2)cc1
17%	-6%	20%	9%	1%	0%	8%[57.1 µM]	Cc1ccccc1Nc1sc(C(=O)c2ccc(F)cc2)c(N)c1C(=O)NCCc1ccccc1
11%	-12%	?	i	-3%	?	-30%	Cc1ccc(-n2c(N)c(C(N)=O)sc2=S)c(C)c1
-4%	-17%	0%	-6%	0%	?	1%[57.1 µM]	O=C(C1CCCN(Cc2ccccc2)C1)N1CCCCC1 (stereo unspecified)
-2%&-13%	-7%&-25%	-9%[11.4 µM]	-9%	-3%&2%	?	11%&6%	O=S(=O)(c1cccc(C(F)(F)F)c1)N(CCCN1CCOCC1)Cc1cccs1
-2%	28%	4%	-1%	-2%	10%	-2%[57.1 µM]	C=CCN(c1ccccc1)S(=O)(=O)c1cc2c(cc1C)N(C)CCO2
-5%	-7%	-4%	0%	-1%	-29%	2%	CCOC(=O)c1c(O)c2ccccc2n(-c2ccccc2)c1=O
-11%	12%	?	-7%	-28%	77%[activator]	-11%	C[N+](C)(CCOc1ccccc1)Cc1ccccc1 (tested in a mixture with another compound)
18%	-7%	-18%	i	7%	13%	13%[57.1 µM]	Cc1ccc(NC(=O)CSc2ccc(-c3ccccn3)nn2)cc1
-3%	3%	19%	i	-1%	-1%	23%	CCOc1ccc(NC(=O)COC(=O)C2(C)CC2(Cl)Cl)c([N+](=O)[O-])c1 (stereo unspecified)
6%	10%	-5%	7%	68%[activator]	8%	-24%	C[C@@H]1CC=C[C@H]2[C@H]1C(=O)N(Cc1ccccc1)[C@H]2c1ccc(-c2ccc(N(C)C)cc2)cc1F
9%	2%	22%	-2%	?	4%	11%[57.1 µM]	CC1(C)C2CCC1(C)C(NC(=O)/C=C/c1ccccc1)C2 (stereo unspecified)
6%	-2%	-14%	i	0%	-1%	8%	CN1CCN(C(=O)c2ccc3c(c2)NC(=O)/C(=C/c2ccccc2)S3)CC1

An excerpt from above, showing only ERG-DNA inh.
| Molecule | ERG-DNA inh |
| --- | --- |
| C[N+](C)(CCOc1ccccc1)Cc1ccccc1 (tested in a mixture with another compound) | -11% |
| CCOC(=O)c1c(O)c2ccccc2n(-c2ccccc2)c1=O | -5% |
| C[C@@H]1CC=C[C@H]2[C@H]1C(=O)N(Cc1ccccc1)[C@H]2c1ccc(-c2ccc(N(C)C)cc2)cc1F | 6% |

Additional results.
ERG-DNA inh	GLS inhibitor	RGS4 inhibitor	PGK inhibitor	Pin1 inhibitor	12-LOX inh	TrxR1 inh	molecule
6%	10%	25%	-6%	0%	?	-3%	CCOc1cccc(OCCCCN2CCOCC2)c1
11%	1%	-2%	12%	0%	-2%	18%[57.1 µM]	COCCOc1cc(N)c(Cl)cc1Cl
1%	2%	-7%	-3%	-4%	12%	-8%	CCOC(=O)c1c(-c2ccccc2)nnn1-c1nc(OC)nc(N2CCOCC2)n1
-1%	0%	-9%	-1%	14%	-24%	1%	Cc1ccc(S(=O)(=O)N2CCOCC2)cc1NC(=O)CN1CCC(Cc2ccccc2)CC1
5%	6%	-9%	i	2%	14%	17%	C=CCn1c(Cc2csc(N)n2)nnc1SCC(=O)Nc1ccccc1C(F)(F)F
1%	-8%	-12%	-1%	-1%	?	-15%	CCOC(=O)N1CCN(Cc2c(F)cccc2F)CC1
20%	4%	24%	-1%	8%	?	26%[2.29 µM]	COc1ccc(CNCc2ccccc2[N+](=O)[O-])cc1OC
-4%	2%	5%	-7%	0%	-6%	2%[57.1 µM]	CO/N=C/c1ccc(N2CCN(C(=O)c3ccc(C)cc3)CC2)c([N+](=O)[O-])c1
1%	16%	12%	4%	0%	?	25%	COc1ccc(CNc2ncc(-c3ccccc3)n2C)cc1
13%	-1%	-10%	6%	-2%	-9%	-3%	Cc1c(NC(=O)CNCc2ccc3c(c2)OCO3)c(=O)n(-c2ccccc2)n1C

Structures shown so far with an aryl methoxy group, in the order listed:
ERG-DNA inh	GLS inhibitor	RGS4 inhibitor	PGK inhibitor	Pin1 inhibitor	12-LOX inh	TrxR1 inh	molecule
-13%	21%	-45%	i	-1%	-20%	?	COc1ccc(C(=O)NC(=S)NNC(=O)c2cnccn2)cc1OC
1%	2%	-7%	-3%	-4%	12%	-8%	CCOC(=O)c1c(-c2ccccc2)nnn1-c1nc(OC)nc(N2CCOCC2)n1
20%	4%	24%	-1%	8%	?	26%[2.29 µM]	COc1ccc(CNCc2ccccc2[N+](=O)[O-])cc1OC
1%	16%	12%	4%	0%	?	25%	COc1ccc(CNc2ncc(-c3ccccc3)n2C)cc1

Following part:
ERG-DNA inh	GLS inhibitor	RGS4 inhibitor	PGK inhibitor	Pin1 inhibitor	12-LOX inh	TrxR1 inh	molecule
-12%	2%	-18%	i	-6%	?	17%	CCc1nc(C)ccc1OCC(=O)NCCCN(C)C
-11%	-13%	-13%	i	0%	15%	-8%	CC(=O)O[C@H]1c2ccccc2-c2ccccc2[C@@H]1OC(C)=O
7%	0%	-10%	-2%	-4%	?	23%	COc1cccc(C(=O)N2CCN(Cc3ccccc3Br)CC2)c1
7%	?	?	-2%	-12%	?	?	O=C(NNC(=S)Nc1ccc(Cl)c(Cl)c1)c1cccc([N+](=O)[O-])c1
3%	20%	-28%	-4%	-7%	10%	?	COc1cc(CN2CCC(C(=O)NC3CCCC3)CC2)cc(OC)c1O
-8%	17%	20%[11.4 µM]	-6%	1%	?	21%	CN(C)CCCN(C(=O)c1ccc(C(=O)c2ccccc2)cc1)c1nc2c(F)cccc2s1
-9%	11%	-26%	i	-14%	?	4%	COC(=O)Cc1[nH]n(-c2nc3ccccc3s2)c(=O)c1C(C)=O
-15%	-4%	-5%	i	-9%	?	19%[57.1 µM]	CC1CN(C2CCN(C(=O)COc3ccc(Cl)cc3)CC2)CC(C)O1 (stereo unspecified)
-3%	4%	-8%	-6%	-5%	-13%	-6%[57.1 µM]	O=c1ccn(Cc2ccc(F)cc2)c2ccnc(C(F)(F)F)c12
-2%	0%	-2%	4%	11%	1%	1%[57.1 µM]	C/C(=N\NC(=O)c1ccc(NS(=O)(=O)c2cccs2)cc1)c1ccc(C(C)(C)C)cc1
-3%	·	1%	9%	-14%	-22%	-11%	Cc1cccc(C(=O)N/N=C/c2ccncc2)c1
·	1%	-3%	3%	6%	-13%	7%	COc1ccc2oc(C)c(C(=O)c3ccc([N+](=O)[O-])cc3)c2c1
2%	-20%	-54%	?	?	?	?	COc1ccccc1OCc1nnc(SCC(=O)NCc2ccco2)n1Cc1ccco1
-2%	2%	-14%	6%	-1%	25µM*	13µM*	CCOC(=O)N1CCN(Cc2ccc(O)c3ncccc23)CC1
3%	8%	-25%	4%	4%	19%	21%	C=CCn1c(SCC(=O)Nc2ccccc2F)nnc1C(C)NC(=O)c1ccccc1F (stereo unspecified)
10%	-9%	-30%[56.9 µM]	i	-12%	-48%	-19%	O=C1CN(C(=O)CNCc2cccc(Cl)c2)c2ccccc2N1
8%	-26%	-35%	i	-1%	2%	-8%	CNc1nc(N)c(C(=O)Nc2cc(C)on2)s1
4%	1%	5%	i	6%	·	19%	CC(=O)c1cccc(NC(=O)Cn2cnc(S(=O)(=O)N3CCC(C)CC3)c2)c1
-4%	-4%	-12%	-8%	-4%	-8%	-3%[57.1 µM]	CC(=O)N/C(=C\c1ccccc1)C(=O)OC(C)C(=O)N(C)c1ccccc1 (stereo unspecified)
-1%	5%	-3%	-9%	-6%	11%	19%	COc1ccc(Cl)cc1N(CC(=O)Nc1cccc(SC)c1)S(C)(=O)=O

Marked active in 12-LOX inh (from the list above):
ERG-DNA inh	GLS inhibitor	RGS4 inhibitor	PGK inhibitor	Pin1 inhibitor	12-LOX inh	TrxR1 inh	molecule
-2%	2%	-14%	6%	-1%	25µM*	13µM*	CCOC(=O)N1CCN(Cc2ccc(O)c3ncccc23)CC1

The listing continues:
ERG-DNA inh	GLS inhibitor	RGS4 inhibitor	PGK inhibitor	Pin1 inhibitor	12-LOX inh	TrxR1 inh	molecule
-5%	15%	?	0%	7%	?	7%	CC(C(=O)NCC(=O)Nc1ccc(F)c(F)c1F)N1CCN(c2ccc(O)cc2)CC1 (stereo unspecified)
-6%	10%	12%	5%	0%	0%	-13%	Cc1nnc(NC(=O)CSc2nnc(CCNC(=O)c3ccccc3F)n2C)s1
0%	-10%	7%[56.9 µM]	2%	9%	-19%	9%	CCCNC(=O)COC(=O)c1cc(C)nc2ccccc12
-2%	21%	4%	4%	-3%	?	11%	CCOC(=O)c1c(N2CCN(c3ccccc3)CC2)cc(C)nc1C
-6%	6%	-18%	1%	2%	?	13%[2.29 µM]	COc1cc(CN2CCCCCC2)c([N+](=O)[O-])cc1OC
